# Bioassay records deposited in PubChem by several laboratories.
# TNAP activators = stimulation of alkaline phosphatase TNAP activity – biochemical, luminescent, no phosphate acceptor, uHTS, primary screen (AID 1001). hit rate 0.03% among 200,000. activation fold at 20 µM; hits with a dose series show EC50 in µM. purified TNAP, luminescent activation assay, no phosphate acceptor; higher activation fold means a stronger effect; in the data active = activation fold from about 3, or a potency from the dose series; inactive = the rest, 99 in 100 with activation fold below about 1.6; also: many of its hits are not listed in these tables
# K1F lysis inhibition = protection from phage-mediated lysis, alamar blue read-out – E. coli UTI89, K1F phage, bacterial capsule biogenesis inhibitors (AID 488966); E. coli UTI89 K1F phage lysis, alamar blue, 2 h; higher % means a stronger effect; hit rate 0.02% among 340,000; inhibition, % at 100 µM, or IC50 in µM where a hit was titrated;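 active = phage lysis inhibition, versus mean bacterial control, above a set limit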;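 also: capsule biogenesis inhibitors block K1F phage lysis so surviving cells raise fluorescence; higher fluorescence means more inhibition of phage lysis; actives were called in the ten point dose series up to 300 µM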
# Myeloid diff MLP = myeloid differentiation induction. hit rate 1% among 360,000. ER-HoxA9 myeloid progenitors, lysozyme-GFP differentiation, flow cytometry. AID 624256. calls only at 10 µM;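 active = normalized GFP-positive differentiation at or above the plate's own cutoff, the solvent-only control mean plus 3 SD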;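 also: cells exposed to compound for four days before flow analysis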
# M1AAP inhibition = P. falciparum M1AAP inhibitors, biochemical, fluorogenic H-Leu-NHMec substrate, 1536-well (AID 1445). one-dose inhibition, % at 30 µM; IC50 in µM for titrated hits. recombinant M1AAP, H-Leu-NHMec fluorogenic kinetic assay; higher % means a stronger effect. hit rate 0.42% among 220,000;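 active = primary inhibition above the hit cutoff, then over 50% inhibition at one or more dose response concentrations, cut at about 23% in these data, passing the limit was not always enough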;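 also: plate controls were DMSO full reaction for no effect and no enzyme background for full effect; strong numbers were not always called active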
# CSM14.1 death rescue = protection against thapsigargin-triggered cell killing – 384-well, CSM14.1, ATP luminescence, primary screen (AID 1222); cellular ATP content (survival), % at 20 µM, or EC50 in µM where a hit was titrated; CSM14.1 thapsigargin-induced death rescue, ATP luminescence; higher % means a stronger effect; 190,000 tested, under 10 active;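 active = EC50 below 50 µM in the dose-response confirmation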;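 also: death triggered by thapsigargin at about 15 µM added after 2 h compound pretreatment; cell ATP read after overnight thapsigargin exposure of roughly 18 to 22 hours; normalized against plate controls of thapsigargin alone and 5% DMSO vehicle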
# Lipid droplet = modulators of hepatic lipid droplet formation; AML12 mouse hepatocytes, oleate lipid droplets, BODIPY imaging; inhibition, % at 6.5 µM; hit rate 0.4% among 240,000; AID 1656;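 active = lipid droplet intensity inhibited by at least 50%, with more than 500 cells counted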
#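 Material – mouse AML12 hepatocyte cell line, fixed after treatment · Compound dosing – one dose, 6.5 µM compound · Times – compound with oleate, overnight · Measured by – Image-based BODIPY and DAPI two-channel analysis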
# WT yeast gro inh = growth inhibition of WT yeast, mitochondrial fusion screen; mitochondrial fusion phenotypic screen, WT strain; inhibition, % at 10 µM; hit rate 2.1% among 190,000; in the data active = inhibition above about 58%; tested in S. cerevisiae
# WT yeast gro inh mutant strain = recorded beside WT yeast gro inh, whose call it bears; inhibition, %; mitochondrial fusion phenotypic screen, mutant strain inhibition
# Lipid droplet cells 6.5 µM = further read-out of Lipid droplet, marked with its call; cell count; measured here: cell count, cytotoxicity flag;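 cells counted across two imaged fields per well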
# Myeloid diff MLP GFP+ MAC1+ % = recorded beside Myeloid diff MLP, whose call it bears; GFP+ MAC1+ double positive, %; measured here: differentiation confirmed by MAC1 staining
# The depositor's hits bear a star; i = inactive; · = no result given. Not all compounds are listed; the hit share may differ from the screen's.
# A first look, seven compounds:
SMILES,TNAP activators,K1F lysis inhibition,Myeloid diff MLP,Myeloid diff MLP GFP+ MAC1+ %,M1AAP inhibition,CSM14.1 death rescue,Lipid droplet,WT yeast gro inh,WT yeast gro inh mutant strain,others
Cc1cc(=O)oc2cc(NC(=O)CCC(=O)O)ccc12,1,-1.9%,i,7.2,-3%,0.5%,·,10,23,
COc1cc2c(cc1OC)C(C(=O)NCc1cccnc1)C(c1cccnc1)N(C)C2=O (stereo unspecified),1,0.8%,i,1.3,8%,-0.2%,·,-18,-18,
Cc1ccc(-n2c(=O)cc(N3CCC(C)CC3)[nH]c2=O)cc1,1.1,4.5%,i,4.3,3%,-1.3%,·,-6,4,
CCCCCn1c(SCC(=O)c2ccccc2)nc2cc(C(=O)NCc3ccco3)ccc2c1=O,1,0.1%,i,0.3,2%,-0.9%,·,19,2,
O=C(Cn1c(=O)oc2ccccc21)NC(=O)NCc1ccccc1,1.1,0.7%,i,1.0,0%,-1.1%,·,-1,3,
CCCOc1ccc(OC(=O)c2ccc(Br)o2)cc1,1,0.6%,i,0.8,0%,-0.1%,·,37,44,
CCCCn1c(SC(C)C(=O)c2ccc(OC)cc2)nc2cc(S(N)(=O)=O)ccc21 (stereo unspecified),1,0.3%,i,6.9,4%,-1.1%,·,-7,22,

# Main list, from the first entry:
SMILES,TNAP activators,K1F lysis inhibition,Myeloid diff MLP,Myeloid diff MLP GFP+ MAC1+ %,M1AAP inhibition,CSM14.1 death rescue,Lipid droplet,WT yeast gro inh,WT yeast gro inh mutant strain,others
Cc1cc(=O)oc2cc(NC(=O)CCC(=O)O)ccc12,1,-1.9%,i,7.2,-3%,0.5%,·,10,23,
COc1cc2c(cc1OC)C(C(=O)NCc1cccnc1)C(c1cccnc1)N(C)C2=O (stereo unspecified),1,0.8%,i,1.3,8%,-0.2%,·,-18,-18,
Cc1ccc(-n2c(=O)cc(N3CCC(C)CC3)[nH]c2=O)cc1,1.1,4.5%,i,4.3,3%,-1.3%,·,-6,4,
CCCCCn1c(SCC(=O)c2ccccc2)nc2cc(C(=O)NCc3ccco3)ccc2c1=O,1,0.1%,i,0.3,2%,-0.9%,·,19,2,
O=C(Cn1c(=O)oc2ccccc21)NC(=O)NCc1ccccc1,1.1,0.7%,i,1.0,0%,-1.1%,·,-1,3,
CCCOc1ccc(OC(=O)c2ccc(Br)o2)cc1,1,0.6%,i,0.8,0%,-0.1%,·,37,44,
CCCCn1c(SC(C)C(=O)c2ccc(OC)cc2)nc2cc(S(N)(=O)=O)ccc21 (stereo unspecified),1,0.3%,i,6.9,4%,-1.1%,·,-7,22,
Cc1nc(N2CCN(c3ccccc3)CC2)[nH]c(=O)c1Cc1cccc2ccccc12,1,·,·,·,10%,-0.6%,·,-1,-2,
Cc1oc(-c2cccs2)nc1CS(=O)CC(=O)NCCCOC(C)C (stereo unspecified),1.2,0.0%,i,2.2,7%,2.6%,·,-31,-46,
COc1ccc(N2C(=O)CSC23CCC(C(C)(C)C)CC3)cc1 (stereo unspecified),1.1,3.8%,i,2.4,8%,-0.6%,·,6,-1,
CCNC(=S)NNC(=O)c1cccs1,1.1,2.8%,i,0.6,-3%,0.9%,·,-6,-3,
Cc1cccc(-n2c(C)cc(/C=N/n3cnnc3)c2C)c1,1.1,-0.2%,i,1.5,6%,-3.1%,·,2,-5,
C=C(C)C1Cc2nc(N)nc(C)c2C1 (stereo unspecified),1,-0.1%,i,0.6,0%,2.0%,·,17,24,
COC(=O)C1=C(C)N=C2SC(C#N)=C(N)N2C1c1ccc(OC)cc1 (stereo unspecified),1,-0.6%,·,·,23%,-1.3%,·,-20,5,
Cc1ccnn1CC(=O)N/N=C/c1ccco1,1,0.4%,i,0.6,-2%,-0.4%,·,12,6,
COc1cc(CNCCN2CCOCC2)ccc1OCc1ccc(Cl)cc1Cl,0.9,0.2%,i,0.5,3%,-0.7%,·,-7,24,
C=C(C)[C@H]1CC=C(C)/C(=N/NC(=O)CNc2ccccc2OC)C1,1,2.8%,i,1.0,5%,0.8%,·,47,42,
O=S(=O)(c1cccs1)N1CN(Cc2ccc(Cl)cc2)c2nc3ccccc3nc21,1.1,-0.4%,i,0.4,1%,2.4%,·,27,18,
CNC(=O)/C(C#N)=c1\s/c(=C/C(=O)OC)c(=O)n1-c1ccccc1,1,0.1%,i,0.6,7%,2.6%,·,-3,-12,
CCSc1nc2nc(C)cc(C)n2n1,1,0.2%,i,1.2,-3%,1.4%,·,4,-5,
Cc1cccc(Nc2nnc(-c3ccc(C(=O)N4C[C@H]5C[C@H](C4)c4cccc(=O)n4C5)cc3)c3ccccc23)c1,1.2,-0.1%,i,0.5,5%,-0.9%,·,0,0,
CCCCCNCc1ccc(Br)cc1,1.1,-1.8%,i,5.4,5%,-0.7%,·,4,40,
CCOc1cc(/C=C2/C(=O)N(c3ccccc3)N=C2C)ccc1OC(=O)c1cccs1,1.1,-0.3%,i,3.4,22%,-3.9%,·,·,·,
Cc1ccc2c(n1)CC(C)(C)CC2=O,1.1,0.3%,i,0.4,0%,-0.5%,·,3,-11,
CCCCn1nc2cc(C(=O)NCc3ccc(C(F)(F)F)cc3C(F)(F)F)ccc2c1OCC,1.1,0.5%,i,1.8,4%,0.3%,·,8,-2,
CCOc1cc(C(=O)N2CCN=C2SC)cc(OCC)c1OCC,1.1,3.5%,i,1.2,9%,·,7,-4,-4,Lipid droplet cells 6.5 µM=713
O=C(Nc1ccc([N+](=O)[O-])cc1)/C(=C/c1cccc([N+](=O)[O-])c1)NC(=O)C1CCCCC1,1.1,0.4%,i,4.5,-2%,0.7%,·,-30,5,

# 3 entries already listed, sorted by length of the SMILES, ascending:
SMILES,TNAP activators,K1F lysis inhibition,Myeloid diff MLP,Myeloid diff MLP GFP+ MAC1+ %,M1AAP inhibition,CSM14.1 death rescue,Lipid droplet,WT yeast gro inh,WT yeast gro inh mutant strain,others
CCSc1nc2nc(C)cc(C)n2n1,1,0.2%,i,1.2,-3%,1.4%,·,4,-5,
CCCCn1nc2cc(C(=O)NCc3ccc(C(F)(F)F)cc3C(F)(F)F)ccc2c1OCC,1.1,0.5%,i,1.8,4%,0.3%,·,8,-2,
O=C(Nc1ccc([N+](=O)[O-])cc1)/C(=C/c1cccc([N+](=O)[O-])c1)NC(=O)C1CCCCC1,1.1,0.4%,i,4.5,-2%,0.7%,·,-30,5,
